Vaccinia stage – Vaccinia orthopox stage-specific inhibition; activity change (mCherry), % (test concentration not listed); AID 1053133; Vaccinia-infected cells, mCherry/Venus stage reporter fluorescence; hits give low values; some inactives read as strong as hits; 0.01% of 89,000 active;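 active = mCherry past -33% and 40 or more points under the early reporter, replicates agreeing; inconclusive = past -33% without that gap or agreement; tested in A549 cells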;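 also: scaled between vehicle wells and reference inhibitor wells; 23 nL library stock went into each well; one replicate is shown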
Vaccinia stage Venus – further read-out of Vaccinia stage, marked with its call; activity change (Venus), %; measured here: Venus reporter, other viral stage;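 negative = less Venus signal; first of two replicates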
* hit, by the source's call; u = inconclusive; x = not tested or not shown; & = joins results of further samples.

#	compound	Vaccinia stage	Vaccinia stage Venus
1	O=C(C[C@H]1C[C@@H]2c3cc(NS(=O)(=O)c4ccccc4)ccc3O[C@@H]2[C@@H](CO)O1)N1CCOCC1	-1	15
2	COc1ccc2c3c([nH]c2c1)[C@H](CO)N(C(=O)c1cccnc1)CC31CCN(C(=O)Nc2cccc(F)c2)CC1	12	4
3	O=S(=O)(c1ccccc1F)N1CCCCN2[C@H](CO)[C@H](c3ccc(-c4ccncc4)cc3)[C@@H]2C1	36	6
4	COc1ccc(NC(=O)N(C)C[C@@H]2Oc3ccc(NC(=O)Cn4cnnn4)cc3C(=O)N([C@@H](C)CO)C[C@H]2C)cc1	20	4
5	O=C(Nc1cccc(F)c1)N1CC(=O)N2[C@H](C1)[C@@H](c1ccc(C#CC3CC3)cc1)[C@@H]2CO	-10	-24
6	C[C@H]1CN([C@@H](C)CO)C(=O)c2ccccc2-c2ccccc2CO[C@H]1CN(C)C(=O)Nc1cccc(Cl)c1Cl	u	x
7	C[C@@H]1CN([C@H](C)CO)C(=O)c2cccc(NS(=O)(=O)c3cn(C)cn3)c2O[C@H]1CN(C)C(=O)Nc1ccccc1	12	11
8	N#C[C@@H]1[C@@H](c2ccc(C#CC3CCCCC3)cc2)[C@@H](CO)N1C(=O)Cc1ccccn1	4	42
9	O=C(c1ccc(F)cc1)N1CC(=O)N2[C@H](CO)[C@@H](c3ccc(/C=C/c4ccccc4)cc3)[C@H]2C1	-21	-18
10	COCC(=O)N1[C@H](C#N)[C@@H](c2ccccc2-c2ccccc2F)[C@@H]1CO	18	14
11	CCCC#Cc1ccc2c(c1)O[C@@H](CN(C)CCC)[C@@H](C)CN([C@H](C)CO)S2(=O)=O	-29	-20
12	COc1ccccc1NC(=O)N1C[C@@H](O)COC[C@H]2O[C@@H](CC(=O)NCCc3ccncc3)CC[C@@H]21	3	0

#	compound	Vaccinia stage	Vaccinia stage Venus
13	Cc1noc(C)c1NC(=O)N(C)C[C@H]1Oc2c(NS(=O)(=O)c3cn(C)cn3)cccc2C(=O)N([C@@H](C)CO)C[C@@H]1C	8	2
14	CCCC#Cc1ccc2c(c1)[C@@H]1[C@@H](CCN1S(=O)(=O)c1ccc(F)cc1)[C@@H](CO)N2C	-15	-10
15	COc1ccc2c3c([nH]c2c1)[C@H](CO)N(C(=O)C1CCCC1)CC31CCN(C(=O)NC(C)C)CC1	9	7
16	CN1C(=O)c2cc(NC(=O)C3CCOCC3)ccc2OC[C@H]2O[C@H](CC(=O)NCc3ccccc3F)CC[C@@H]21	13	11
17	Cc1ccc(S(=O)(=O)N(C)C[C@@H]2Oc3ccc(NC(=O)c4ccncc4)cc3CC(=O)N([C@@H](C)CO)C[C@H]2C)cc1	2	-1
18	COc1ccc(NC(=O)N(C)C[C@H]2OCCCC[C@@H](C)Oc3ccc(NC(=O)Nc4c(C)noc4C)cc3C(=O)N([C@H](C)CO)C[C@@H]2C)cc1	27	19
19	COc1ccc(NC(=O)N2CC(=O)N3[C@H](CO)[C@@H](c4ccc(C#CCC5CCCC5)cc4)[C@@H]3C2)cc1	u	x
20	C[C@@H]1CN([C@@H](C)CO)C(=O)c2cc(NC(=O)Cn3cnnn3)ccc2O[C@H]1CN(C)C	26	5
21	C[C@H](CO)N1C[C@H](C)[C@@H](CN(C)Cc2ccc(C(=O)O)cc2)Oc2ncc(C#CCN(C)C)cc2C1=O	36	15
22	COc1ccc(S(=O)(=O)Nc2cccc3c2O[C@H](CN(C)C)[C@H](C)CN([C@H](C)CO)C3=O)cc1	-1	2
23	C[C@@H]1CCCCO[C@@H](CN(C)C(=O)CCCN(C)C)[C@@H](C)CN([C@H](C)CO)C(=O)c2cc(NS(C)(=O)=O)ccc2O1	14	9
24	C[C@H](CO)N1C[C@H](C)[C@H](CN(C)Cc2ccccc2)OCCCC[C@H](C)Oc2ccc(NS(=O)(=O)c3ccc(F)cc3)cc2C1=O	u	x

#	compound	Vaccinia stage	Vaccinia stage Venus
25	Cc1noc(C)c1NC(=O)N(C)C[C@@H]1Oc2ncc(C#CCN(C)C)cc2C(=O)N([C@@H](C)CO)C[C@@H]1C	15	8
26	Cc1ccc(S(=O)(=O)N(C)C[C@@H]2Oc3c(NC(=O)Nc4ccc5c(c4)OCO5)cccc3C(=O)N([C@H](C)CO)C[C@@H]2C)cc1	-12	-4
27	CC(C)NC(=O)Nc1ccc2c(c1)CC(=O)N([C@@H](C)CO)C[C@H](C)[C@@H](CN(C)S(=O)(=O)c1cccs1)O2	12	15
28	CS(=O)(=O)N1CC(=O)N2[C@H](CO)[C@@H](c3ccc(C#CCc4ccccc4)cc3)[C@@H]2C1	19	-3
29	CCCC(=O)Nc1ccc2c(c1)C(=O)N(C)C[C@@H](OC)[C@H](C)CN(C(=O)c1ccccc1F)[C@H](C)CO2	-8	-1
30	COc1ccccc1C#Cc1ccc([C@H]2[C@@H](CO)N3CCCCN(CCC(F)(F)F)C[C@H]23)cc1	-20	-19
31	CN(C)C(=O)c1ccc(-c2ccc3c(c2)[C@H]2[C@H](CCN2Cc2ccc4c(c2)OCO4)[C@H](CO)N3)cc1	-27	-4
32	CCS(=O)(=O)Nc1ccc2c(c1)C(=O)N(C)C[C@H](OC)[C@@H](C)CN(C(=O)C1CC1)[C@@H](C)CO2	-4	-1
33	CC(C)CC#Cc1cnc2c(c1)C(=O)N([C@@H](C)CO)C[C@@H](C)[C@H](CN(C)C(=O)Cc1ccccc1)O2	-26	-28
34	C[C@@H]1CCCCO[C@H](CN(C)Cc2ccc3c(c2)OCO3)[C@@H](C)CN([C@H](C)CO)C(=O)c2cc(NC(=O)CCC(F)(F)F)ccc2O1	0	-6
35	COc1ccc2c3c([nH]c2c1)[C@@H](CO)N(C(C)=O)CC31CCN(C(=O)Nc2ccc(F)cc2)CC1	9	-3
36	C[C@@H]1CN([C@H](C)CO)C(=O)c2c(c3ccccc3n2C)-c2ccccc2CO[C@H]1CN(C)C(=O)c1ccccc1	-18	-19

Whole records, quoted from the list:
`C[C@@H]1CCCCO[C@H](CN(C)Cc2ccc3c(c2)OCO3)[C@@H](C)CN([C@H](C)CO)C(=O)c2cc(NC(=O)CCC(F)(F)F)ccc2O1` in the list: Vaccinia stage: 0; Vaccinia stage Venus: -6
`CCCC(=O)Nc1ccc2c(c1)C(=O)N(C)C[C@@H](OC)[C@H](C)CN(C(=O)c1ccccc1F)[C@H](C)CO2` in the list: Vaccinia stage: -8; Vaccinia stage Venus: -1
`C[C@@H]1CN([C@H](C)CO)C(=O)c2c(c3ccccc3n2C)-c2ccccc2CO[C@H]1CN(C)C(=O)c1ccccc1` in the list: Vaccinia stage: -18; Vaccinia stage Venus: -19

The list continues.
#	compound	Vaccinia stage	Vaccinia stage Venus
37	CCC(=O)Nc1ccc2c(c1)OC[C@H](C)N(C(=O)c1ccncc1)C[C@H](C)[C@H](OC)CN(C)C2=O	5	2
38	CCNC(=O)Nc1ccc2c(c1)C(=O)N(C)[C@H]1CC[C@@H](CC(=O)Nc3ccccc3)O[C@H]1CO2	-1	5
39	COCCNC(=O)C[C@@H]1C[C@@H]2c3cc(NC(=O)NC4CCCC4)ccc3O[C@@H]2[C@H](CO)O1	5	0
40	O=C(NC[C@@H]1[C@H](c2ccccc2)[C@@H](CO)N1C(=O)Cc1ccncc1)C1CCC1	4	3
41	O=C(c1cnccn1)N1CC(=O)N2[C@H](C1)[C@@H](c1ccc(/C=C/c3ccccc3)cc1)[C@@H]2CO	-9	-2
42	CCNC(=O)C[C@@H]1CC[C@H]2[C@@H](COc3ccc(NC(=O)c4cccs4)cc3C(=O)N2C)O1	5	7
43	Cc1ccc(S(=O)(=O)N[C@H]2CC[C@@H](CCNC(=O)Cc3ccccn3)O[C@@H]2CO)cc1	-10	-2
44	O=C1CN(S(=O)(=O)Cc2ccccc2)C[C@@H]2[C@H](c3ccc(C#Cc4ccc(F)cc4)cc3)[C@H](CO)N12	u	x
45	C[C@H]1CN([C@@H](C)CO)C(=O)c2cccc(NC(=O)c3cnccn3)c2O[C@@H]1CN(C)S(C)(=O)=O	16	16
46	OC[C@@H]1[C@H](c2ccc(C#CC3(O)CCCC3)cc2)[C@H]2CN(Cc3ccncc3)CCCCN12	5	1
47	COCC(=O)N1[C@H](CO)[C@H](c2ccccc2)[C@H]1CNC(=O)c1ccccn1	13	20
48	C[C@@H]1CN([C@H](C)CO)C(=O)c2cc(NC(=O)c3ccncc3)ccc2O[C@@H](C)CCCCO[C@H]1CN(C)S(=O)(=O)c1ccccc1	10	-4

Four structures from above, arranged by SMILES length, highest first:
#	compound	Vaccinia stage	Vaccinia stage Venus
45	C[C@H]1CN([C@@H](C)CO)C(=O)c2cccc(NC(=O)c3cnccn3)c2O[C@@H]1CN(C)S(C)(=O)=O	16	16
37	CCC(=O)Nc1ccc2c(c1)OC[C@H](C)N(C(=O)c1ccncc1)C[C@H](C)[C@H](OC)CN(C)C2=O	5	2
46	OC[C@@H]1[C@H](c2ccc(C#CC3(O)CCCC3)cc2)[C@H]2CN(Cc3ccncc3)CCCCN12	5	1
40	O=C(NC[C@@H]1[C@H](c2ccccc2)[C@@H](CO)N1C(=O)Cc1ccncc1)C1CCC1	4	3

Further structures:
#	compound	Vaccinia stage	Vaccinia stage Venus
49	Cc1noc(C)c1S(=O)(=O)Nc1ccc2c(c1)C(=O)N([C@H](C)CO)C[C@H](C)[C@@H](CN(C)Cc1ccc3c(c1)OCO3)OCCCC[C@H](C)O2	-23	-23
50	C[C@@H]1CN([C@H](C)CO)C(=O)c2cc(-c3ccncc3)cnc2O[C@H]1CN(C)Cc1ccc(F)cc1	18	2
51	N#Cc1ccc(-c2ccc3c(c2)[C@@H]2[C@@H](CCN2C(=O)C2CCCCC2)[C@H](CO)N3)cc1	u	x
52	COc1ccc(S(=O)(=O)N(C)C[C@H]2Oc3ccc(NC(=O)Nc4ccccc4)cc3C(=O)N([C@H](C)CO)C[C@H]2C)cc1	-12	-8
53	CN(C)CC(=O)N[C@H]1CC[C@@H](CC(=O)NCCN2CCCCC2)O[C@@H]1CO	14	17
54	COc1ccc(NC(=O)Nc2ccc3c(c2)C(=O)N([C@@H](C)CO)C[C@@H](C)[C@H](CN(C)Cc2ccc(C(F)(F)F)cc2)OCCCC[C@H](C)O3)cc1	-24	-17
55	C[C@@H]1CN([C@@H](C)CO)C(=O)c2cc(NC(=O)NC3CCCCC3)ccc2O[C@@H]1CN(C)Cc1ccc(C(=O)O)cc1	7	8
56	C[C@@H]1CN([C@H](C)CO)C(=O)c2cc(-c3cccc(F)c3)cnc2O[C@@H]1CN(C)C(=O)C1CCOCC1	13	15
57	O=C1N(CCS(=O)(=O)c2ccccc2)Cc2ccccc2C[C@@]12N=C(c1ccc(OCCCO)cc1)O[C@H]2c1ccccc1	u	x
58	C[C@@H]1CN([C@@H](C)CO)C(=O)CCCn2nncc2CO[C@H]1CN(C)C(=O)Cc1ccccc1	16&7	10&4
59	CC(=O)N1[C@H](C(=O)N2CCCCC2)[C@@H](CO)[C@@H]2Cn3c(ccc(C4=CCCCC4)c3=O)[C@@H]21	14	6
60	COc1ccc(NC(=O)Nc2ccc3c(c2)CC(=O)N([C@H](C)CO)C[C@H](C)[C@H](CN(C)CC2CCCCC2)O3)cc1	-17	-14

#	compound	Vaccinia stage	Vaccinia stage Venus
61	C[C@@H]1CCCCO[C@@H](CN(C)C(=O)Nc2ccc3c(c2)OCO3)[C@@H](C)CN([C@H](C)CO)C(=O)c2cc(NS(=O)(=O)c3cn(C)cn3)ccc2O1	22	7
62	C[C@@H]1CN([C@H](C)CO)C(=O)c2cccc(NC(=O)c3ccncc3)c2O[C@@H]1CN(C)C(=O)NC1CCCCC1	7	4
63	CCCC(=O)Nc1ccc2c(c1)C(=O)N(C)C[C@H](OC)[C@H](C)CN[C@H](C)CO2	-10	-7
64	COc1ccc(S(=O)(=O)N(C)C[C@H]2Oc3ccc(NC(=O)Cn4cnnn4)cc3C(=O)N([C@H](C)CO)C[C@@H]2C)cc1	4	-5
65	CNC[C@@H]1Oc2ccc(NC(=O)CCN3CCOCC3)cc2CC(=O)N([C@H](C)CO)C[C@H]1C	6	8
66	COc1ccc(S(=O)(=O)Nc2ccc3c(c2)CC(=O)N([C@H](C)CO)C[C@H](C)[C@@H](CN(C)Cc2ccc4c(c2)OCO4)O3)cc1	u	x
67	Cc1ccccc1S(=O)(=O)N1CC(=O)N2[C@H](CO)[C@@H](c3ccc(C#Cc4ccccc4)cc3)[C@@H]2C1	-22	-16
68	CN(C)CC(=O)N[C@@H]1C=C[C@@H](CC(=O)NCCN2CCCCC2)O[C@H]1CO	-3	16
69	CCCNC(=O)N1[C@H](CO)[C@@H]2c3ccccc3N(C(=O)Nc3cccc(Cl)c3)C[C@@H]21	20	24
70	CC(C)c1cn(CC[C@H]2CC[C@@H](NC(=O)C3CCOCC3)[C@H](CO)O2)nn1	21	2
71	C[C@H](CO)N1C[C@H](C)[C@@H](CN(C)Cc2ccccc2)Oc2ccc(NC(=O)Nc3ccc(C(F)(F)F)cc3)cc2CC1=O	u	x
72	C[C@H](CO)N1C[C@H](C)[C@@H](CN(C)S(=O)(=O)c2ccccc2)Oc2ccc(NC(=O)CCCN(C)C)cc2C1=O	-4	-1

#	compound	Vaccinia stage	Vaccinia stage Venus
73	CCCC#Cc1cnc2c(c1)C(=O)N([C@@H](C)CO)C[C@@H](C)[C@H](CN(C)C(=O)c1cccc(F)c1)O2	-7	-2
74	C[C@@H]1CN([C@@H](C)CO)S(=O)(=O)c2ccc(C#CC3(O)CCCC3)cc2O[C@H]1CN(C)C(=O)c1ccncc1	8	3
75	Cc1ccc(S(=O)(=O)N(C)C[C@@H]2Oc3ccc(NS(=O)(=O)c4ccc(Cl)cc4)cc3C(=O)N([C@@H](C)CO)C[C@H]2C)cc1	0	-3
76	O=C(c1ccccn1)N1CC(=O)N2[C@@H](CO)[C@@H](c3ccc(C#Cc4ccccc4)cc3)[C@@H]2C1	-22	-28

Assay outcomes as filed in PubChem BioAssay.

Some of the compounds tested; count on the stated rates, not on these rows.
